# Menin MLL FP FL: inhibitors of human menin-MLL interaction, wild-type MLL peptide; Fluorescence polarization, fluorescein-MLL peptide displacement from menin; FP activity change, % at 61.4 µM; 290,000 tested, under 10 active; inconclusive = falling polarisation curve, or a change in total fluorescence; inactive = total fluorescence flat and polarisation flat or rising; no compound was filed as active; the % refers to the polarisation; negative = inhibition;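 also: % of control where 0% means no effect; inhibitors lower the polarisation; unlabelled MLL peptide was the positive control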
# ClpP mod: qHTS Assay for Activators of ClpP; ATP-dependent Clp protease proteolytic subunit (Bacillus subtilis (strain 168)), P80244; purified B. subtilis ClpP, FRET peptide cleavage, 20 min; Potency, µM (highest dose often 57.5 µM), without a hit: at the highest dose activity change, negative = active; hit rate 1.9% among 340,000; AID 651965, 2013; active = well fitted falling curve with a large enough effect; inconclusive = small, poorly fitted or top-dose-only effect; inactive = no such curve, though single readings can be large or run the other way; also: potency is read from the fitted curve at half-maximal effect; the source files actives as falling curves though it sought activators and does not explain the sign; nearly all actives have a fitted effect of over 65% in size; many hits overshoot -100%
# Target sequence (P80244 whole entry, looked up): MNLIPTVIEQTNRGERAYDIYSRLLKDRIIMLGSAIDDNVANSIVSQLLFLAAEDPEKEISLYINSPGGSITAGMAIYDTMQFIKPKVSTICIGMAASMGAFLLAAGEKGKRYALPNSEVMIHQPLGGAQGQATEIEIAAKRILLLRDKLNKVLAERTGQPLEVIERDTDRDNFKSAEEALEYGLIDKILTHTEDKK
#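 ClpP 10 microg/mL final, pH 8 Tris/KCl buffer with BSA, glycerol, Tween-20; compound pinned in; FRET-FV substrate; RT 20 min; Ex320/Em430; ΔFRET vs ADEP 5.8 microM, DMSO, no enzyme.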
# TRPML1 ag: human mucolipin-1 channel agonism; hit rate 0.12% among 410,000; TRPML1-expressing cells, Ca2+ dye fluorescence, FDSS; host cell line not named in the record; reference of the full effect not given here; AID 624414; activation, % (concentration not given with the values); in the data active = activation above about 50%; inconclusive = about 30% to 50%; inactive = below about 30%; also: 0% is about no effect; the text of the record puts the active cut at 80%
#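 Cells: TRPML1-DL, 1X Tet inducer, ~16 h at 37 degrees C/5% CO2. Dye: ABD Ca8 no-wash + quencher, 45-90 min RT. Read: 10 s baseline, compound add, 110 s agonist phase; 54-4 EC80 (4uM final), 110 s antagonist phase.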
# PINK1 expr mod: changes PINK1 expression | PINK1 immunofluorescence, high-content cytometry, 24 h | Potency, µM (highest dose often 76.6 µM), inactives show top-dose activation (PINK1 increase), usual class: activators | AID 624263 | hit rate 0.2% among 410,000; active = well fitted activation curve with a large enough effect; inconclusive = small, poorly fitted or top-dose-only effect; inactive = flat fitted curve, though single readings scatter; cell line not stated here;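 also: potency is read from the fitted curve at half-maximal effect; % of control where 0% means no effect; nearly all actives have a fitted effect of over 65% in size; a mitochondrial uncoupler was the plate control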
#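 Measures PINK1 amount and localization on or inside mitochondria by immunofluorescence. Stable cells get compounds at 5 concentrations for 24 hours before fixation and staining; CCCP controls included.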
# Sfp inh: Sfp phosphopantetheinyl transferase inhibition | Biochemical Sfp PPTase activity, qHTS | Potency, µM, without a hit: max response, negative = inhibition, usual class: inhibitors | Q9F4F7 | hit rate 3.5% among 310,000 | AID 1490; active = well fitted inhibition curve with a large enough effect; inconclusive = small, poorly fitted or top-dose-only effect, or another doubt; inactive = no such curve, though single readings can be large or run the other way;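 also: the enzyme is Sfp with the accession as filed and its product quenches rhodamine fluorescence; potency is read from the fitted curve at half-maximal effect; 0% = enzyme reaction without inhibitor and -100% = no enzyme wells; top concentration of the series not given in the record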
#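 After 15 min at room temperature with compound, 15 nM Sfp received 5 uM rhodamine-CoA plus 12.5 uM BHQ-2-ybbR (50 mM Hepes pH 7.6, 10 mM MgCl2). Rate came from the fluorescence difference over 30 min, ex 525/em 598 nm.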
# TRPML1 inh: human mucolipin-1 channel inhibition; TRPML1-inducible cells, Ca2+ dye fluorescence, FDSS; hits give low values; inhibition of EC80 agonist-evoked calcium signal; activity change, negative = inhibition, % (no concentration beside the values); hit rate 0.02% among 390,000; in the data active means activity change below about -50%; inconclusive means about -30% to -50%; inactive means above about -30%;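 also: stimulus is agonist 54-4 at its EC80 concentration; % is scaled to controls: 0 for no effect and ±100 for the full control effect; compound concentration not given in the record; the text of the record puts the active cut at -80%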
#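 Tet-induced TRPML1-DL cells loaded with Ca8 no-wash calcium dye were read kinetically on FDSS. Compound addition was followed by EC80 agonist 54-4 (4 uM final); inhibition was read over 110 s.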
# TRPV1 potentiator: human TRPV1 potentiation; Q8NER1; potentiation, % at 8.33 µM; hit rate 0.02% among 320,000; TRPV1-expressing cells, Fluo-8 calcium influx, capsaicin EC20 potentiation; host cell line not named in the record; control for the full effect not named in the record; active means potentiation above 80%; inconclusive means 30% to 80%; inactive means below 30%; also: 0% is about no effect
# Target sequence (Q8NER1 whole entry, looked up): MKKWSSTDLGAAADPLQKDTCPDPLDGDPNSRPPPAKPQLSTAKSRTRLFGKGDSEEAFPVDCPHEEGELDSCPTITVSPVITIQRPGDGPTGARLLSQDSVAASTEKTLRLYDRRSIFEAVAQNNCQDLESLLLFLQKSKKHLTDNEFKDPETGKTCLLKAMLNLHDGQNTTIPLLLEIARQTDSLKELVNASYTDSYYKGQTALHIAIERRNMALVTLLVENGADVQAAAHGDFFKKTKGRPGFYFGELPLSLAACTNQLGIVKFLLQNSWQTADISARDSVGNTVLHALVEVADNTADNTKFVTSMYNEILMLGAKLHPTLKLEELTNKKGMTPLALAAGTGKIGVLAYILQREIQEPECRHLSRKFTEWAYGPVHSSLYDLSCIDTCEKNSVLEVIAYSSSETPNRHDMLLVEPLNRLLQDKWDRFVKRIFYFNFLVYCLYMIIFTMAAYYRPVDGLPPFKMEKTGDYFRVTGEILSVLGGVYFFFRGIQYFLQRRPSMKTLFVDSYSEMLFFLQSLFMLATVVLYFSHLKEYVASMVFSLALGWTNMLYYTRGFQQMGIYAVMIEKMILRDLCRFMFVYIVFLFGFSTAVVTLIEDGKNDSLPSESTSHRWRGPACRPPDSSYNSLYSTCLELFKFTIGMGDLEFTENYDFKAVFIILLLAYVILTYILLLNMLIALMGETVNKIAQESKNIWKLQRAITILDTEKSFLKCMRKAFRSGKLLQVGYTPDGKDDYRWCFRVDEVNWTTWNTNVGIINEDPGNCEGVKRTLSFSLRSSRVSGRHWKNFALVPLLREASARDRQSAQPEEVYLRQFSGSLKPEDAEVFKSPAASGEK
#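 TRPV1-expressing cells were cultured overnight at 35.5C and loaded with Fluo-8 calcium dye for 40 to 90 min at room temperature. After a 10 s baseline, compound was added and calcium influx was read kinetically for 3 min (ex 480/em 520 nm).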
# * = called active by the depositor; ? = inconclusive; · = no result given; & = joins results of further samples; [ ] = another dose, or the depositor's remark.
SMILES,Menin MLL FP FL,ClpP mod,TRPML1 ag,PINK1 expr mod,Sfp inh,TRPML1 inh,TRPV1 potentiator
COCCCN1C(=O)C(CC(=O)NC(c2ccccc2)c2ccccc2)CC(C(=O)N2CCCCCC2)=C1C (stereo not drawn),·,0.2%,-0.7,1.1%,·,·,·
O=C(CSc1ccc(Br)cc1)NC1CCCCCC1,·,1.5%,1.5,-1.2%,·,9.5,·
Cc1ncc([N+](=O)[O-])n1Cc1ccccc1,-1.1,-0.2%,-0.4,4.3%,8.6%,0.4,-19.3
CCOC(=O)C(Sc1nnc2c3ccccc3n(CC)c2n1)C(=O)OCC,0.2,-5.5%,0.4,-6.6%[38.3 µM],-21.9%,-10.4,-4.4
COc1cccc(CNC(=O)CNC(=O)c2cccs2)c1,4.5,-0.8%,3.6,-1.7%,13.4%,19.6,2.2
COC(=O)Cc1cc(=O)n2[nH]c(C)nc2n1,-25.1,-0.9%,0.8,-2.1%,26.0%,10.7,-5.6
CCCc1nnc(NC(=O)CCC(=O)O)s1,7.9,0.1%,-0.4,1.1%,-6.0%,3.4,-1.7
COc1ccc(C(C)(O)c2nc(-c3cccc(O)c3)cs2)cc1 (stereo not drawn),·,1.2%,0.1,6.2%,·,·,·
COc1ccccc1-c1cc(C(=O)NCc2ccco2)no1,2.5,-23.9%,0.3,0.4%[38.3 µM],-2.3%,12.2,-0.3
C=CCn1c(C)nnc1SCC(=O)c1c(N)n(C2CC2)c(=O)[nH]c1=O,·,-1.1%,-0.1,1.6%,·,-5.6,-7.1
CSCCC(NS(=O)(=O)c1ccc2c(c1)oc(=O)n2C)C(=O)Nc1ccc(Cl)cc1 (stereo not drawn),·,-3.4%,-0.6,1.7%,·,0.5,·
CCc1ccc(-c2nc(CS(=O)CC(=O)NC3CCCCCC3)c(C)o2)cc1 (stereo not drawn),·,-6.2%,-1.6,-1.7%,50.1µM*,-1.4,1.6
CCc1ccccc1NC(=O)CNC(=O)c1n[nH]c(=O)c2ccccc12,·,1.0%,-0.3,-0.3%,·,-2.2,-4.0
CCOC(=O)N1CCN(Cc2nc(N)nc(Nc3ccc(OC)cc3)n2)CC1,2.5,-0.2%,-0.5,2.5%[38.3 µM],5.2%,28.7,-6.0
Cc1ccc(CN2CC(C(=O)Nc3nnc(SCc4c(Cl)cccc4Cl)s3)CC2=O)cc1 (stereo not drawn),0.7,-2.2%,0.2,0.3%,10.4%,3.0,13.4
CC(C)COP(=O)(c1ccc(N(C)C)cc1)C(O)c1ccc(N(C)C)cc1 (stereo not drawn),2.2,-1.6%,1.5,0.1%,9.8%,-0.5,1.3
CCCNC(=O)C(Cc1ccccc1C)NC(=O)c1ccc(C#N)cc1 (stereo not drawn),·,1.4%,-0.4,-0.6%,·,18.9,-7.8
CCOc1ccc(CCNC(=O)c2cc(-c3ccccc3)c(N3CCOCC3)s2)cc1,·,?,1.2,1.1%,·,10.5,·
COc1ccc(C2N3CC4(C)CN2CC(C)(C3)C4O)cc1OC (stereo not drawn),-2.2,0.1%,-0.1,1.7%,9.5%,-1.3,5.3
CSCCC(NC(=O)COc1ccccc1)C(=O)N1CC(C)CC(C)C1 (stereo not drawn),·,0.3%,3.7,0.3%,·,3.5,-28.8
COC(=O)c1cn(NC(=O)C2CCC(C)CC2)c(=O)c2ccccc12 (stereo not drawn),-1.5,11.1%,2.0,-0.8%,4.6%,8.2,·
CC(C)C(=O)Nc1ccc(C(=O)NNC(=S)NC(=O)c2cccs2)cc1,2.0,-0.6%,-0.3,0.0%,11.3%,-9.5,-4.7
O=C(c1ccc2nc(Cc3cccc(Cl)c3)oc2c1)N1CCOCC1,·,0.5%,0.1,1.1%,-2.8%,-3.4,16.9
O=S(=O)(c1ccccc1)N1c2cc(Cl)ccc2Oc2nc3ccccc3nc21,-2.4,-0.6%,0.1,8.2%,-8.7%,8.3,7.9
COc1ccccc1Cc1c(-c2ccc(C#N)cc2)nc2ccc(Br)cn12,·,-17.4%,-0.1,4.0%,·,33.5,·
O=C(COc1ccc(Cl)cc1Cl)Nc1nc2n(n1)C(c1ccccc1)CC(=O)N2 (stereo not drawn),-1.1,-4.8%,-0.4,-7.2%[38.3 µM],8.4%,-20.9,-2.5
Cc1cc(C)c(NC(=O)CN2C(=O)NC3(CCCCC3)C2=O)c(C)c1,-8.1,-1.4%,0.5,7.6%[38.3 µM],22.8%,-4.6,-6.6
O=C(NNC(=O)c1cccs1)c1ccc(Br)o1,3.1,-4.8%,-0.4,2.5%,13.7%,-0.7,-2.3
Brc1ccc2ncnc(NCc3ccccc3)c2c1,1.8,-1.8%,-0.2,1.3%,-0.3%,12.4,19.3
Cc1ccc(-n2c(C)cc(-c3csc(N)n3)c2C)cc1,0.0,-0.5%,-0.4,?,?,-10.5,4.2
Cc1nn2c(C)c(C(=O)N3CCN(c4ccc(Cl)cc4)CC3)cnc2c1-c1ccc(F)cc1,·,-3.1%,-0.3,1.2%,·,24.2,·
O=C(NCC1CC1)c1ccc2nc([C@@H]3O[C@H](CO)[C@H](O)[C@H](O)[C@H]3O)[nH]c2c1,·,-0.1%,0.0,-0.9%,·,·,·
CC(=O)Cc1nsc(NC(=O)c2ccc(-c3cc(Cl)ccc3Cl)o2)n1,4.7,·,0.6,6.5%,18.3%,-3.3,-25.1
Cc1ccc(S(=O)(=O)N(CC(=O)Nc2cccnc2)c2ccc(Br)cc2)cc1,·,-0.8%,1.2,4.3%,5.9%,1.8,-14.9
CCc1nc2sc(C(C)=O)c(N)c2c2c1CCCC2,7.3,3.9%,1.8,-1.1%,-21.6%,42.5,-1.5
O=C(NCC1(c2ccccc2)CCCC1)C(=O)Nc1cccc(Br)c1,·,-0.3%,-0.1,1.8%,·,-12.7,·
Cc1cc(C)cc(NC(=O)c2cc(C)n(Cc3cccs3)c2C)c1,3.3,·,0.9,-0.6%,8.8%,-7.1,-4.4
CCC1(CC)SCCNC1=O,·,-0.2%,-0.3,0.2%,·,-10.6,·
Oc1[nH]c2ccccc2c1N=Nc1ncnc2c1oc1ccccc12,-10.9,·,·,·,7.3%,·,-8.5
CCOC(=O)c1ccc(COC(=O)CNC(=O)CNC(=O)Cc2ccccc2)cc1,·,0.5%,0.3,0.3%,28.5%,11.7,3.4

# Two successive entries from above, quoted:
SMILES,Menin MLL FP FL,ClpP mod,TRPML1 ag,PINK1 expr mod,Sfp inh,TRPML1 inh,TRPV1 potentiator
CC(=O)Cc1nsc(NC(=O)c2ccc(-c3cc(Cl)ccc3Cl)o2)n1,4.7,·,0.6,6.5%,18.3%,-3.3,-25.1
Cc1ccc(S(=O)(=O)N(CC(=O)Nc2cccnc2)c2ccc(Br)cc2)cc1,·,-0.8%,1.2,4.3%,5.9%,1.8,-14.9

# Carrying on.
SMILES,Menin MLL FP FL,ClpP mod,TRPML1 ag,PINK1 expr mod,Sfp inh,TRPML1 inh,TRPV1 potentiator
Cc1c(C(=O)Nc2ccc(Br)cc2F)oc2ccc(S(=O)(=O)N3CCC4(CC3)OCCO4)cc12,·,-19.6%,1.6,2.7%,·,-12.6,·
Cc1ccc(-n2ncc3c(=O)n(-c4ccc(C)c(C)c4)c(-c4ccco4)nc32)cc1,5.5,-14.2%,-0.3,3.6%,-11.3%,-18.9,-5.3
CN(C)S(=O)(=O)c1cccc(NC(=O)CN2C(=O)NC3(CCc4ccccc4C3)C2=O)c1 (stereo not drawn),-4.4,·,-0.9,2.4%,-4.9%,-5.7,-6.3
Clc1ccccc1-c1nccc(NCc2cccs2)n1,3.4,·,·,0.8%,7.1%,·,·
Cc1ccc(C)c(OCc2cc(C(=O)N(C)Cc3ccccn3)no2)c1,6.6,-2.4%,-1.1,0.1%,-14.1%,-0.6,-17.8
CC(=O)c1ccc(OCCOc2ccc(Cl)c3cccnc23)cc1,2.4,·,0.0,0.8%,-4.7%,-9.7,5.5
O=C(c1cccc(F)c1)N1CCC[C@@]2(CCN(c3cccc(-c4ccccc4)c3)C2)C1,13.0,·,·,1.9%,-3.2%,·,·
Cc1cccc(OCCn2c(CCNC(=O)C3CCCCC3)nc3ccccc32)c1,·,-0.3%,0.0,2.1%,·,·,·
O=c1cc(CSc2n[nH]c(-c3ccccc3)n2)[nH]c2ccccc12,·,0.3%,2.8,3.3%,·,8.2,·
O=C1CCNCCN1[C@H](CO)Cc1ccccc1,-5.1,3.8%&0.4%,-0.5&0.3,1.9%,10.8%,-10.2,-13.1
COC(=O)c1ccc(NC(=O)CCCN2C(=O)NC(C)(C)C2=O)cc1,·,·,-0.1,3.1%,·,22.4,16.7
CCCNC(=O)[C@H](C)NC(=O)c1ccc(Br)cc1,-5.8,1.3%,-0.5,1.6%,24.1%,8.5,-4.7
Cc1cccc(NC(=O)C2CCN(S(=O)(=O)c3cccc4nsnc34)CC2)n1,-3.2,-0.3%,-0.1,-0.3%,9.4%,3.5,·
Cc1cccc(C(=O)NCC(=O)OCC(=O)N(C)CC(=O)Nc2ccc(F)cc2)c1,·,3.4%,-0.4,-1.3%,·,4.8,-7.6
CC(=O)Oc1c(C(C)C)cc(N(C(C)=O)c2ccccc2)cc1C(C)C,·,-0.1%,-0.8,0.9%,·,16.7,·
O=C(CN1CCN(CC(=O)Nc2ccccc2Cl)CC1)Nc1ccc2c(c1)OCCO2,-1.4,4.3%,0.1,-1.2%,1.0%,-2.9,-0.3
CCN(C(=O)COC(=O)CNS(=O)(=O)c1ccc(SC)c([N+](=O)[O-])c1)C1CCCCC1,·,-2.9%,-0.5,-1.8%,·,-1.2,10.6
COc1cc(C(=O)OCC(C)=O)ccc1OCc1c(C)noc1C,3.2,·,0.1,7.6%,15.8%,-3.8,3.8
CCCn1c(=O)c2ccccc2n2c(SCc3cc(=O)oc4ccc5ccccc5c34)nnc12,3.2,?,3.3,2.0%,-14.4%,19.7,2.5
CCCCn1nnnc1C(c1cc2ccccc2o1)N1CCN(CC(=O)NC(C)C)CC1 (stereo not drawn),·,-3.8%,8.5,3.8%,·,·,·
Cc1ccc(CNS(=O)(=O)c2ccc3[nH]c4c(c3c2)CCCCC4)cc1,·,16.1%,-0.6,6.2%,·,-5.2,·
COc1ccc(C(=O)N(C)[C@H]2C[C@H]3c4[nH]c5ccccc5c4CCN3C[C@H]2[C@H](C)O)cc1,·,5.2%,0.7,0.5%,·,·,·
CSc1ccc(CN(C)C(=O)COc2ccc(C(=O)c3ccccc3)cc2)cc1,·,0.4%,-0.3,1.3%,-0.9%,-1.1,5.6
